Ecoli rRNA inh: inhibitors of bacterial rRNA selective over humanized ribosomes | GFP signal change (wild-type ribosome), % (no concentration beside the values) | E. coli WT GFP vs humanized-ribosome RFP mutants, fluorescence, 24 h; active compounds read low; DMSO median 0, no signal -100 | actives 1.6% (n = 350,000);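 active means significant combined selectivity score with lowered wild-type GFP, culture density cut under 30%, mutant RFP and density less affected; inactive means any of these conditions unmet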; further: one replicate is shown; some compounds called inactive have numbers as strong as hits
Ecoli rRNA inh OD600: further read-out of Ecoli rRNA inh, marked with its call; OD600 change, %; measured here: OD600 growth;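 optical density of the mix in the first replicate; 0 = DMSO median and -100 = no signal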
Ecoli rRNA inh RFP: recorded beside Ecoli rRNA inh, whose call it bears; RFP signal change, %; measured here: RFP humanized mutant strains;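 first replicate; 0 = DMSO median and -100 = no signal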
* marks the source's active call; other numbers are inactive results; & = joins results of further samples. Not all compounds are listed. The share of hits here may be higher or lower than overall.

Ecoli rRNA inh,Ecoli rRNA inh OD600,Ecoli rRNA inh RFP,structure
27,11,3.5,COCCN1C[C@@H](CO)O[C@@H](n2cnc3c(NCc4ccco4)ncnc32)C1
2,14,0.5,CC(C)(C)c1ccc(C(=O)N2CCC2(C)C(=O)NCC(F)(F)F)cc1 (stereo unspecified)
1,0,1.3,C[C@@H]1CN([C@H](C)CO)C(=O)c2cc(NS(=O)(=O)c3ccc(Cl)cc3)ccc2O[C@@H](C)CCCCO[C@@H]1CN(C)S(=O)(=O)c1ccccc1
3,2,-2.0,CO[C@@H]1CN(C)C(=O)c2ccc(NS(=O)(=O)c3c(C)noc3C)cc2OC[C@H](C)NC[C@H]1C
0,-11,-2.8,CO[C@H]1CN(C)C(=O)c2ccc(NC(=O)c3ccccc3F)cc2OC[C@@H](C)N(CC2CC2)C[C@@H]1C
1,0,6.8,N#CC(=Cc1ccccn1)c1nc(-c2ccc(Cl)cc2)cs1
6,8,-5.3,CC(=O)N(C)C[C@H]1Oc2cc(C#C[C@H](C)O)ccc2S(=O)(=O)N([C@@H](C)CO)C[C@@H]1C
-3,-3,2.9,CC(=O)Nc1cc(-c2cccc(CO)c2)cn2c(-c3ccc(C(C)=O)cc3)cnc12
-2,5,2.1,C[C@H]1CCCCO[C@H](CN(C)S(=O)(=O)c2ccccc2)[C@@H](C)CN([C@@H](C)CO)C(=O)c2cc(NC(=O)c3ccccc3)ccc2O1
-1,-3,-1.3,C[C@H](CO)N1C[C@H](C)[C@H](CN(C)C(=O)Nc2cccc(F)c2)Oc2ncc(C3=CCCC3)cc2C1=O
-1,-1,-0.8,COC(=O)C[C@H]1CC[C@@H]2[C@H](COc3ccc(NC(=O)NC(C)C)cc3C(=O)N2C)O1
4,-24,14,OC[C@H]1[C@H](c2ccc(C#CC3(O)CCCC3)cc2)[C@H]2CN(Cc3ccccc3F)CCCCN21
14,9,8.1,CC(C)C[C@H](NC(=O)c1ccccc1)C(=O)N1CCC[C@H]1C(=O)NCc1ccccc1
-9,-11,0.6,COc1cc(OC)cc(-c2noc(-c3csc([C@@H]4C[C@H](O)[C@@H](CO)O4)n3)n2)c1
4,13,-2.4,CC(C)NC(=O)Nc1ccc2c(c1)C(=O)N([C@@H](C)CO)C[C@@H](C)[C@H](CN(C)C)OCCCC[C@H](C)O2
1,0,-3.3,C[C@@H]1CN([C@@H](C)CO)C(=O)c2cc(NC(=O)Nc3ccc4c(c3)OCO4)ccc2O[C@@H]1CN(C)C
5,1,-5.0,COCC#Cc1cnc2c(c1)C(=O)N([C@H](C)CO)C[C@@H](C)[C@@H](CN(C)C(C)=O)O2
-11,-16,0.7,CCC(=O)N(C)C[C@H]1Oc2cc(-c3ccc(F)cc3)ccc2S(=O)(=O)N([C@@H](C)CO)C[C@@H]1C
1,-3,-5.6,C[C@@H]1CCCCO[C@H](CN(C)C(=O)Nc2ccc3c(c2)OCO3)[C@H](C)CN([C@@H](C)CO)C(=O)c2cc(NS(=O)(=O)c3ccc(F)cc3)ccc2O1
8,14,-3.7,CC1(C(=O)NS(=O)(=O)Cc2ccccc2C(F)(F)F)CCN1C(=O)Cc1cccs1 (stereo unspecified)
2,4,-0.4,CNC[C@H]1OCCCC[C@@H](C)Oc2ccc(NS(=O)(=O)c3ccc(Cl)cc3)cc2C(=O)N([C@H](C)CO)C[C@H]1C
0,1,1.0,Cc1noc(C)c1S(=O)(=O)N(C)C[C@H]1OCCCC[C@@H](C)Oc2ccc(NC(=O)Nc3ccc(F)cc3)cc2C(=O)N([C@@H](C)CO)C[C@H]1C
3,-11,-1.4,Cc1ccc(S(=O)(=O)Nc2ccc3c(c2)C(=O)N([C@@H](C)CO)C[C@H](C)[C@@H](CN(C)Cc2ccc(C(F)(F)F)cc2)O3)cc1
1,6,1.5,COc1ccc(S(=O)(=O)Nc2ccc3c(c2)C(=O)N([C@@H](C)CO)C[C@H](C)[C@H](CN(C)C(=O)Nc2ccc(F)cc2)O3)cc1
-4,-3,-4.6,C[C@@H]1CN([C@H](C)CO)C(=O)Cc2cc(NC(=O)Nc3ccc4c(c3)OCO4)ccc2O[C@H]1CN(C)Cc1ccc(C(=O)Nc2ccccc2N)cc1
-1,1,-3.6,C[C@H]1CN([C@@H](C)CO)C(=O)c2cc(Br)cnc2O[C@@H]1CN(C)C(=O)c1ccccc1F
7,10,-3.2,C[C@H]1CN([C@@H](C)CO)C(=O)c2cc(-c3ccncc3)cnc2O[C@H]1CN(C)C(=O)Cc1cccnc1
0,4,2.6,C[C@@H]1CCCCO[C@@H](CN(C)Cc2ccc(C(F)(F)F)cc2)[C@H](C)CN([C@H](C)CO)C(=O)c2cc(NC(=O)Nc3cccc4ccccc34)ccc2O1
-20,-43,1.4,CCCCCCN1C[C@H](O)[C@@H](n2cc(C3CC3)nn2)C[C@@H]1c1ccc(Cl)cc1
2,8,-2.4,CN(C)CC(=O)Nc1ccc2c(c1)[C@H]1C[C@H](CC(=O)N3CCOCC3)O[C@@H](CO)[C@H]1O2
-10,-16,-0.4,Cc1ccc(CCNC(=O)CN2C(=O)CSc3ccc(S(=O)(=O)N4CCOCC4)cc32)cc1
3,6,-4.1,O=C(C[C@H]1C[C@H]2c3cc(NC(=O)CC4CC4)ccc3O[C@H]2[C@@H](CO)O1)NCC(F)(F)F
-1,-4,0.5,CNC(=O)C[C@@H]1CC[C@H]2[C@H](COc3ccc(NC(=O)c4cnccn4)cc3C(=O)N2C)O1
2,3,3.0,O=S(=O)(c1ccccc1F)N1CCCCN2[C@H](CO)[C@H](c3ccc(-c4ccncc4)cc3)[C@H]2C1
6,6,-1.3,C[C@H]1CN([C@@H](C)CO)C(=O)c2cccc(N(C)C)c2O[C@@H]1CN(C)C(=O)NC1CCCCC1
1,-3,3.0,COCC(=O)N1CC(=O)N2[C@H](CO)[C@@H](c3ccc(C#Cc4cccnc4)cc3)[C@@H]2C1
-1,-2,0.4,COc1ccccc1C(=O)Nc1ccc2c(c1)C(=O)N(C)C[C@@H](OC)[C@H](C)CN[C@@H](C)CO2
0,0,4.4,C[C@H]1CCCCO[C@@H](CN(C)S(=O)(=O)c2cccs2)[C@@H](C)CN([C@@H](C)CO)C(=O)c2cc(NS(=O)(=O)c3ccc(F)cc3)ccc2O1
3,7,0.4,C[C@H]1CN([C@@H](C)CO)C(=O)c2cc(C3=CCCCC3)cnc2O[C@H]1CN(C)Cc1ccncc1
-2,-2,2.2,CN1C(=O)c2cc(NC(=O)c3ccc(F)cc3)ccc2OC[C@H]2O[C@H](CC(=O)NCC3CC3)CC[C@H]21
-24,-58,-2.8,N#C[C@@H]1[C@@H](c2ccc(C#Cc3cccc(F)c3)cc2)[C@@H](CO)N1C(=O)C1CCC1
-2,-9,1.8,Cc1ccc(S(=O)(=O)Nc2ccc3c(c2)C(=O)N([C@H](C)CO)C[C@@H](C)[C@@H](CN(C)C(=O)C2CCCCC2)OCCCC[C@H](C)O3)cc1
-2,-1,0.5,CN1c2ccc(C3=CCCCC3)cc2[C@@H]2[C@@H](CCN2C(=O)C2CCCC2)[C@H]1CO
1,-2,-4.3,CO[C@@H]1CN(C)C(=O)c2ccc(NC(=O)Nc3ccccc3)cc2OC[C@@H](C)N(C(C)=O)C[C@H]1C
-32,-48,-8.0,COc1cc(CNC(=O)Nc2nc(C(N)Cc3ccc(Cl)cc3)cs2)cc(OC)c1OC (stereo unspecified)
3,4,-3.8,CC(=O)N1[C@H](C(=O)NCc2ccc(F)cc2)[C@@H](CO)[C@@H]2Cn3c(cccc3=O)[C@@H]21
4,2,0.9,C[C@@H]1CN([C@@H](C)CO)C(=O)c2cc(NS(=O)(=O)c3cccs3)ccc2O[C@@H]1CN(C)Cc1ccccc1
-1,-3,-2.4,CC(=O)Nc1ccc2c(c1)CC(=O)N(C)C[C@@H](C)[C@@H](CN(C)C(=O)OC(C)(C)C)O2
13,21,1.7,COC(=O)N1C2CCCCC2=NN(c2ccccc2)N1C(=O)OC (stereo unspecified)
2,6,-1.2,CCC(=O)N1CCCCN2[C@H](C1)[C@@H](c1ccc(-c3cccnc3)cc1)[C@@H]2CO

Record cards, from the list above. Order of values: Ecoli rRNA inh	Ecoli rRNA inh OD600	Ecoli rRNA inh RFP
COC(=O)N1C2CCCCC2=NN(c2ccccc2)N1C(=O)OC (stereo unspecified) is entered as 13	21	1.7
C[C@H]1CN([C@@H](C)CO)C(=O)c2cc(-c3ccncc3)cnc2O[C@H]1CN(C)C(=O)Cc1cccnc1 is entered as 7	10	-3.2
COCC(=O)N1CC(=O)N2[C@H](CO)[C@@H](c3ccc(C#Cc4cccnc4)cc3)[C@@H]2C1 is entered as 1	-3	3.0
CC(=O)N1[C@H](C(=O)NCc2ccc(F)cc2)[C@@H](CO)[C@@H]2Cn3c(cccc3=O)[C@@H]21 is entered as 3	4	-3.8
C[C@H]1CN([C@@H](C)CO)C(=O)c2cccc(N(C)C)c2O[C@@H]1CN(C)C(=O)NC1CCCCC1 is entered as 6	6	-1.3

Carrying on:
Ecoli rRNA inh,Ecoli rRNA inh OD600,Ecoli rRNA inh RFP,structure
-2&0,3&-6,3.5&-2.1,Fc1ccc(F)c(CN2[C@@H]3CNC[C@H]2C3c2ccc(-c3ccncc3)cc2)c1 (stereo partly specified)
-25,-30,-2.6,CCOC(=O)CNC(=O)N(C)[C@H]1C[C@H]2c3[nH]c4c(-c5ccccc5)cccc4c3CCN2C(=O)[C@H]1[C@H](C)O
-3,9,0.1,N#C[C@@H]1[C@@H](c2ccc(-c3cccnc3)cc2)[C@H](CO)N1C(=O)C1CCC1
14,14,4.6,O=C(c1ccoc1)N1CCN(c2cc(-c3cccc(F)c3)nc3cc(-c4cccc(Cl)c4)nn23)CC1
0,-6,6.1,COc1cc(Cl)ccc1OC1(C)CCN(Cc2cccn2-c2nccs2)C1 (stereo unspecified)
-11,-17,-3.0,CN1c2ccc(-c3ccccc3F)cc2[C@@H]2[C@@H](CCN2C(=O)Nc2cc(F)ccc2F)[C@@H]1CO
4,7,-1.9,CCC(=O)N1C[C@@H](C)[C@H](OC)CN(C)C(=O)c2cc(NC(=O)C3CCOCC3)ccc2OC[C@@H]1C
2,9,3.1,Cc1nc2c(OCc3ccc(C(F)(F)F)cc3)cccn2c1N(C)CC1CC1
-48,-69,1.5,CC(C)NC(=O)N1CCCCN2[C@H](CO)[C@H](c3ccc(C#Cc4ccccc4)cc3)[C@H]2C1
-1,-6,-1.8,O=C(C[C@H]1CC[C@H]2[C@@H](COC[C@H](O)CN2Cc2ccccc2)O1)N1CCOCC1
0,-1,0.3,CCCN1CCCCC(NC(=O)c2ccccc2OC)C1=O (stereo unspecified)
-3,-9,1.1,C[C@H]1CN([C@@H](C)CO)C(=O)c2cc(NS(=O)(=O)c3ccc(F)cc3)ccc2O[C@H]1CN(C)S(=O)(=O)c1ccc(F)cc1
-19,-10,22,CN1c2ccc(C#Cc3cccnc3)cc2[C@@H]2[C@@H](CCN2C(=O)C2CCCCC2)[C@H]1CO
12,3,7.9,COc1ccc(OC)c(NC(=O)Nc2nc(CN(C)C)cs2)c1
2,3,-0.5,CC(=O)N1[C@H](CO)[C@@H](c2ccccc2)[C@@H]1CN(C)C(=O)CN1CCOCC1
0&0&0,-1&3&-1,-1.4&0.0&0.9,CCC(=O)Nc1ccc2c(c1)OC[C@@H](C)N(Cc1ccccc1F)C[C@@H](C)[C@@H](OC)CN(C)C2=O
2,6,1.7,Cc1ccccc1S(=O)(=O)N(C)C[C@H]1OCc2ccccc2-c2c(n(C)c3ccccc23)C(=O)N([C@H](C)CO)C[C@H]1C
0,-1,0.6,CC(=O)Oc1ccc(Cn2c(C)c(C(=O)NCCC#N)sc2=O)cc1
-6,-38,28,CC(C)CC#Cc1ccc2c(c1)O[C@@H](CN(C)C(=O)C1CCC1)[C@@H](C)CN([C@@H](C)CO)S2(=O)=O
-6,-30,17,C[C@@H]1CN([C@H](C)CO)S(=O)(=O)c2ccc(C#Cc3ccccc3)cc2O[C@@H]1CN(C)C(=O)c1ccccn1
-2,-11,2.7,C[C@@H]1CN([C@H](C)CO)C(=O)Cc2cc(NS(=O)(=O)c3ccccc3)ccc2O[C@@H]1CN(C)Cc1ccccc1
-5,-8,0.3,C[C@H]1CN([C@@H](C)CO)C(=O)Cc2cc(NC(=O)c3ccncc3)ccc2O[C@H]1CN(C)Cc1ccc2c(c1)OCO2
-6,-12,2.6,COc1ccc(S(=O)(=O)N(C)C[C@H]2Oc3cc(C4=CCCC4)ccc3S(=O)(=O)N([C@@H](C)CO)C[C@@H]2C)cc1
-37,-43,-0.1,N#Cc1ccc(-c2ccc([C@@H]3[C@H](CO)N4CCCCN(S(=O)(=O)c5ccccc5)C[C@@H]34)cc2)cc1
-2,-12,0.1,CCNC(=O)C[C@@H]1CC[C@H]2[C@H](COc3ccc(NC(=O)Nc4cccc(F)c4)cc3C(=O)N2C)O1
2,-7,-2.5,O=C(CCN1CCCCC1)NCC[C@H]1CC[C@H](NC(=O)C2CCC2)[C@H](CO)O1
11,18,0.8,COCCNC(=O)C1(C)CCN(C(=O)c2cc(C)n(C(C)(C)C)n2)C1 (stereo unspecified)

Results in Ecoli rRNA inh (3 entries from above):
structure	Ecoli rRNA inh
CCCN1CCCCC(NC(=O)c2ccccc2OC)C1=O (stereo unspecified)	0
C[C@H]1CN([C@@H](C)CO)C(=O)c2cc(NS(=O)(=O)c3ccc(F)cc3)ccc2O[C@H]1CN(C)S(=O)(=O)c1ccc(F)cc1	-3
CN1c2ccc(C#Cc3cccnc3)cc2[C@@H]2[C@@H](CCN2C(=O)C2CCCCC2)[C@H]1CO	-19

Screening data from PubChem.
